VACV mCherry inh – vaccinia inhibition (mCherry reporter). actives 0.63% (n = 310,000). Vaccinia virus mCherry reporter infection, fluorescence; about a quarter of the inactives have no number. AID 720579. Potency, µM (series often up to 36.5 µM), without a hit: at the highest dose activity change, negative = inhibition, actives largely listed as inhibitors; active = well fitted inhibition curve with a large enough effect; inconclusive = small, poorly fitted or top-dose-only effect; inactive = no such curve, though single readings can be large or run the other way; tested in A549 cells; also: nearly all actives have a fitted effect of over 35% in size; inactives centre near -10
VACV Venus inh – inhibitors of vaccinia virus (Venus reporter); Vaccinia virus Venus reporter expression, fluorescence; Potency, µM (titrated, usually from 36.5 µM), for the others: at the top dose activity change, negative = inhibition, actives largely listed as inhibitors; actives 0.46% (n = 330,000); AID 720580; active means well fitted inhibition curve with a large enough effect; inconclusive means small, poorly fitted or top-dose-only effect; inactive means no such curve, though single readings can be large or run the other way; tested in A549 cells; also: nearly all actives have a fitted effect of over 30% in size; inactives centre near -10
Starred values were filed as active, the others as inactive; i = inactive; ? = inconclusive; nt = not tested or not shown; + = active, no number; & = joins results of further samples; ! = a repeat was not active; [ ] = dose if it differs, or a comment. % is scaled to controls: 0 for no effect and ±100 for the full control effect; potency is read from the fitted curve at half-maximal effect.

mol	VACV mCherry inh	VACV Venus inh
Cc1ccnc(NC(c2ccccc2)c2ccc3cccnc3c2O)c1 (centres undefined)	?	?
CN(CC(=O)Nc1cccc(F)c1)C(=O)c1ccc(-n2cncn2)c([N+](=O)[O-])c1	-13%	-1%
CCC1CCc2c(sc(NC(=O)c3cnccn3)c2C(N)=O)C1 (centres undefined)	-13%	-8%
O=C(NCCN1CCCC1)c1ccc(Cn2c(=S)[nH]c3ccc(Br)cc3c2=O)cc1	3%	-3%
CN(C)CCCN(C(=O)c1ccco1)c1nc2ccc(Cl)cc2s1	-17%	?
COc1cc(NC(=O)C/C(C)=N/NC(=O)c2cccc(O)c2)c(OC)cc1Cl	-24%	-10%
COc1ccc(-c2nn(-c3ccccc3)cc2C(=O)Nc2ccc(C(=O)O)cc2)cc1OC	-4%	-2%
Cn1c(=O)c2c(nc3n2CC(O)CN3c2ccccc2)n(C)c1=O (centres undefined)	-15%	-12%
CCOC(=O)c1c(CN2CCN(CC#N)CC2)n(C)c2cc(Br)c(OC)cc12	-23%	-4%
O=C(C1CC1)N1CCc2cc(Br)cc(S(=O)(=O)N3CCN(c4cccc(Cl)c4)CC3)c21	-2%	1%
O=C(CN1C(=O)NC2(CCCC2)C1=O)OCc1ccc(Br)cc1	-4%	-2%
COc1cccc(-c2nn(C)c3sc(C(=O)N4CCN(c5ccccc5)CC4)cc23)c1	-21%	-2%
NC(=O)CSc1nc2cc3c(cc2c(=O)n1CCCCCC(=O)NCc1ccc2c(c1)OCO2)OCO3	-20%	-25%
Cc1csc(SCC(=O)Nc2ccc(CC#N)cc2)n1	?	0%
Cc1cc(C)c(OCC(=O)OCC(=O)NCc2ccco2)c(C)c1	i	-7%
CCN(CC)S(=O)(=O)c1cccc(NC(=O)CSc2nnc(N)s2)c1	-3%	-15%
Cc1ccc(SCc2[nH]nc3c2C2(CCSCC2)C(C#N)=C(N)O3)cc1	-8%	-6%
CC(C)(O)c1cc2ccc(C#Cc3ccsc3)cc2c(=O)o1	-19%	-28%
O=C(CCC(=O)N1CCSc2ccccc21)NCc1ccc(Cl)cc1	i	-5%
CO[C@H]1C[C@@H]2CC[C@@H](C)[C@@](O)(O2)C(=O)C(=O)N2CCCC[C@H]2C(=O)O[C@H]([C@H](C)C[C@@H]2CC[C@@H](O)[C@H](OC)C2)CC(=O)[C@H](C)/C=C(/C)[C@@H](O)[C@@H](OC)C(=O)[C@H](C)C[C@H](C)C=C/C=C\C=C/1C	-17%	?

Part of the list above in order of molecular weight, smallest number first:
mol	VACV mCherry inh	VACV Venus inh
Cc1csc(SCC(=O)Nc2ccc(CC#N)cc2)n1	?	0%
CCC1CCc2c(sc(NC(=O)c3cnccn3)c2C(N)=O)C1 (centres undefined)	-13%	-8%
O=C(CCC(=O)N1CCSc2ccccc21)NCc1ccc(Cl)cc1	i	-5%
CN(CC(=O)Nc1cccc(F)c1)C(=O)c1ccc(-n2cncn2)c([N+](=O)[O-])c1	-13%	-1%
COc1ccc(-c2nn(-c3ccccc3)cc2C(=O)Nc2ccc(C(=O)O)cc2)cc1OC	-4%	-2%
NC(=O)CSc1nc2cc3c(cc2c(=O)n1CCCCCC(=O)NCc1ccc2c(c1)OCO2)OCO3	-20%	-25%
CO[C@H]1C[C@@H]2CC[C@@H](C)[C@@](O)(O2)C(=O)C(=O)N2CCCC[C@H]2C(=O)O[C@H]([C@H](C)C[C@@H]2CC[C@@H](O)[C@H](OC)C2)CC(=O)[C@H](C)/C=C(/C)[C@@H](O)[C@@H](OC)C(=O)[C@H](C)C[C@H](C)C=C/C=C\C=C/1C	-17%	?

Going on with the list.
mol	VACV mCherry inh	VACV Venus inh
Cc1noc(C)c1S(=O)(=O)N1CCCCC1	-5%	-12%
CCCCC(CCC(=O)O)(C(=O)OCC)c1csc(Nc2ccccc2)n1 (centres undefined)	i	-6%
COc1ccc(/C=C/C(=O)Nc2c(C(=O)O)[nH]c3ccccc23)cc1OC	-11%	-6%
CC1CCCCC1NC(=O)CNC(=O)c1ccco1 (centres undefined)	i	-7%
Cc1ccc(NC(=O)C(C)OC(=O)Cc2c[nH]c3ccccc23)cc1 (centres undefined)	?	-8%
Cc1nc(-c2cccnc2)sc1C(=O)Nc1ccc(Cl)cc1	-6%	-9%
COc1cc(=O)n2c(c1C(=O)N(C)Cc1nonc1C)CCN(C(=O)c1cccc(C)c1C)CC2	i	0%
CCCN1C(=O)C(O)(C/C(C)=N/O)c2ccccc21 (centres undefined)	nt	-13%
COc1ccc(-n2nc(C(=O)O)c(=O)n(C)c2=O)cc1	-8%	11%
O=C1NC[C@H](Cc2ccccc2)N(C[C@H]2CCCN2C[C@H](Cc2ccccc2)N2C[C@H](Cc3ccccc3)N(CC3CCCCCC3)C(=O)C2=O)C1=O	?	?
Cc1ccc(NC(=O)Nc2cccs2)cc1	4%	8%
COc1ccc(OC)c(S(=O)(=O)Nc2ccc(O)c(Sc3ncn[nH]3)c2)c1	-16%	-8%
CCCNC(=O)NC(=O)CSc1cccc(C(F)(F)F)c1	i	-6%
C=C1C[C@H]2[C@@H]3CCc4cc(OC)ccc4[C@H]3CC[C@]12C	-12%	-20%
O=C(CSC1=Nc2ccccc2N=C(c2ccc(F)cc2)C1)NCc1ccccc1Cl	-16%	-14%
Cc1ccc(S(=O)(=O)c2c(C)nn(C(C)(C)C)c2OC(=O)c2ccc(Br)o2)cc1	?	11µM*
Cc1ccc(S(=O)(=O)N2CCN(c3nc(-c4cncs4)nc4ccccc34)CC2)cc1	-15%	-12%
Cc1cc(C)n(-c2ccc(NC(=O)C3CCN(Cc4cnc(C)s4)CC3)cc2)n1	-2%	-11%
CN(C)CCNC(=O)c1cccn(Cc2cc(C(F)(F)F)cc(C(F)(F)F)c2)c1=O	-27%	-15%
CCOC(=O)c1cnc(SCC(=O)NCc2cccs2)nc1N	i	-5%

Record cards (already shown).
COc1ccc(OC)c(S(=O)(=O)Nc2ccc(O)c(Sc3ncn[nH]3)c2)c1 in the list: VACV mCherry inh = -16%; VACV Venus inh = -8%
Cc1ccc(NC(=O)Nc2cccs2)cc1 in the list: VACV mCherry inh = 4%; VACV Venus inh = 8%

Remaining list, next part:
mol	VACV mCherry inh	VACV Venus inh
COc1ccc(OC)c(N2C(=O)NC(=O)C(CCc3ccncc3)(CCc3ccncc3)C2=O)c1	i	-6%
CN(C(=O)c1ccc(NC(=O)Cc2ccc(NC(=O)C3CCCN(C(=O)C4CCCCC4)C3)cc2)cc1)C1CC1 (centres undefined)	i	-9%
CCOC(=O)C(=CNNc1cccc(Cl)c1)C(=O)OCC	-22%	-23%
CC(=O)N1CCc2c(sc(NC(=O)CSc3ccccc3)c2-c2nc3ccccc3s2)C1	-1%[7.34 µM]	-3%[7.34 µM]
CCc1ccccc1NC(=O)c1ccc2c(c1)nnn2C1CCCC1	-3%	-13%
COCc1c(C(=O)N2CCc3ccccc32)oc2ccccc12	?	-14%
Nc1nc2[nH]c(=O)[nH]c2c(=O)[nH]1	-14%	-22%
COCCN(CC(=O)NCC1CCCO1)C(=O)CCC(=O)Nc1cc(C)on1 (centres undefined)	-17%	-5%
NS(=O)(=O)c1ccc(CCNS(=O)(=O)c2cccs2)cc1	i	-2%
COc1ccc(C(=O)NCC2OCCc3ccccc32)cc1 (centres undefined)	-18%	-8%
CCc1ccc(C(=O)CC2(O)C(=O)N(CCc3ccccc3)c3ccc(Br)cc32)cc1 (centres undefined)	?	-29%
CCOc1ccc(-n2nc(CO)c(C(=O)NCc3ccc(Cl)cc3)n2)cc1	-6%	-11%
COC(=O)[C@@H](CC(C)C)NS(=O)(=O)N(Cc1ccccc1)[C@@H](CC(C)C)C(=O)OC	-5%	-26%&-15%
COc1ccc(Cl)cc1NC(=O)N1CCC2(CC1)Oc1ccccc1C(=O)N2Cc1ccc(F)cc1	-9%	-14%
O=C(O)CCCOc1ccc(Cl)cc1Cl	+!	?
CCN(CC)c1cc2c(cc1F)c(=O)c(S(=O)(=O)c1cccc(C)c1)cn2C	i	-14%
CCSc1nnc(NC(=O)Nc2cccc(C)c2)s1	-14%	-21%
CC(C)Cn1c(N)c(C(=O)NCCN2CCOCC2)c2nc3ccccc3nc21	?	?
CC(C)(C)n1ncc2c(=O)n(CC(=O)Nc3ccc(Cl)cc3)cnc21	nt	-17%
O=C(O)c1ccc2c(c1)N(Cc1ccccc1)C(=O)c1ccccc1S2	-9%	-3%
O=c1oc2ccccc2n1Cc1ccccc1	i	-6%
CCC(=O)Nc1sc2c(c1C(=O)OC)CCN(Cc1ccccc1)C2	?	-9%
COc1ccc(CC(=O)NCCS(=O)(=O)N2CCN(c3ccccc3)CC2)cc1OC	-6%	-8%
CCOc1ccc(OCC)c(NC(=O)C2CCN(S(=O)(=O)c3ccc(Br)s3)CC2)c1	-17%	-13%
COC(=O)c1cc(NC(=O)c2ccccc2)c(=O)oc1/C=C/Nc1ccc(Oc2ccccc2)cc1	1%	10%
CCc1ccc(OC2(C)CCN(Cc3ccc4c(c3)OCCO4)C2)cc1 (centres undefined)	2%	5%
COc1ccc(Cl)cc1N(C)C(=O)Cc1noc2ccc(C)cc12	-13%	-5%
COc1ccccc1NC(=S)NCC1CCC(CNC(=S)Nc2ccccc2OC)CC1 (centres undefined)	i	1%
CC(=Nc1cccc(C)c1)c1sc2ccccc2c1O	-10%	0%
O=C(O)c1ccn(Cn2cnc3ccccc32)n1	nt	-8%
CC(=O)OC(C(=O)NC1CCCCC1)c1cccc(C)c1 (centres undefined)	-9%	-6%
CN1C[C@@H]2[C@@H]3C(=O)N(Cc4ccccc4)C(=O)[C@@H]3[C@](Cc3ccccc3)(C1=O)N2C(=O)c1ccc(Br)cc1	-19%	-21%
COc1cc(/C=C2/SC(=S)N(Cc3ccccc3)C2=O)ccc1OCC(=O)O	i	24%
CC(C)Oc1ccc(C(=O)OC(C)C(=O)NC2CCCCC2C)cc1 (centres undefined)	-3%	-27%
CC1CCCCC1NC(=O)COC(=O)c1c2c(nc3ccccc13)/C(=C/c1ccco1)CC2 (centres undefined)	-10%	-3%
CC(C)Oc1ccc(CNC(=O)C(C)n2ccc3cc(S(=O)(=O)N4CCCCCC4)ccc32)cc1 (centres undefined)	i	-19%
COc1ccc(NC(=O)CSc2ccccc2)c([N+](=O)[O-])c1	-26%	1%
Cc1cc(N=Cc2c(O)n(-c3cccc(Cl)c3)c(=O)c3ccccc23)no1	-17%	-13%
CC(=O)c1cccc(NC(=S)NC(=O)CC(C)(C)C)c1	-12%	-9%
CC(C)CCNC(=O)Cn1c2c(c(-c3ccccc3Cl)cc1=O)CCC2	-4%	-24%

(further entries)
Results follow in this order: VACV mCherry inh, VACV Venus inh
O=C(/C=C/c1cc2ccccc2o1)c1ccccc1O
  -7%, -6%
CC1CN(C(=O)COC(=O)c2c(Cl)cccc2Cl)CC(C)O1 (centres undefined)
  -2%, -17%
COc1ccc(-n2nc(C(=O)NCC(=O)N3CCCC3)c3ccccc3c2=O)cc1Cl
  -1%, 12%
O=C(CCS(=O)(=O)c1ccc(Cl)cc1)OCC(=O)N1CCCCC1
  nt, -9%
CC(=O)c1ccc(S(=O)(=O)NCCc2csc(-c3cccnc3)n2)cc1
  -12%, 5%
CCC1(C)Cc2c(sc3nc(SC)nc(N)c23)CO1 (centres undefined)
  nt, -18%
COc1ccccc1NC(=O)CN1CCN(C(=O)C2CCCO2)CC1 (centres undefined)
  -20%, -9%
Cc1occc1-c1nnc(SCC(=O)c2c[nH]c3ccccc23)n1C
  ?, -16%
c1cc2c(cc1Cc1cncc(Cc3ccc4c(c3)OCO4)c1)OCO2
  -18%, -13%
Clc1ccc(CNc2ncnc3[nH]ncc23)c(Cl)c1
  i, -15%
CCN1CCN(C(=O)C2CCCN(S(=O)(=O)c3cccc4nsnc34)C2)CC1 (centres undefined)
  -15%, -10%
CN(C)CCn1c(N)nc2ccccc21
  ?, -13%
Cc1c(Cc2ccccc2)c(=O)[nH]c(=O)n1C
  -9%, -1%
O=C(Nc1ccc(S(=O)(=O)NC2CCCCC2)cc1)c1ccco1
  -4%, -15%
COc1ccc(/C=N/NC(=O)c2ccc(NC(=O)c3cccc([N+](=O)[O-])c3)cc2)c(OC)c1
  7%, 0%
CC(=O)N/N=C(\C)c1cccc(C(F)(F)F)c1
  i, -3%
CCC(=O)N(Cc1cc(=O)[nH]c2ccccc12)c1ccccc1C
  ?, -9%
COc1cccc(CNS(=O)(=O)c2c(C(=O)N3CCCCC3)c(C)n(C)c2C)c1
  -26%, -1%
O=c1ccc(Cl)nn1-c1ccccc1
  -16%, -5%
CCOC(=O)NC1=NCC(C)(C)S1
  -15%, -4%
COc1cccc(COC(=O)Nc2ccccc2F)c1
  -7%, -1%
O=C(O)CCC(=O)Nc1ccc(N2CCOCC2)cc1
  nt, -16%
CCc1nn(CC(=O)Nc2ccc(C)c(F)c2)c(=O)c2cc3cc(C)ccc3n12
  -11%, -4%
CCOC(=O)N1CCC(NC(=O)c2cnn(-c3ccc(C)cc3C)c2C2CCN(C(=O)OC(C)(C)C)CC2)CC1
  -7%, -9%

2 records picked at random from the list so far, as already listed:
Results follow in this order: VACV mCherry inh, VACV Venus inh
O=C(CCS(=O)(=O)c1ccc(Cl)cc1)OCC(=O)N1CCCCC1
  nt, -9%
Clc1ccc(CNc2ncnc3[nH]ncc23)c(Cl)c1
  i, -15%

Source: PubChem BioAssay (National Center for Advancing Translational Sciences (NCATS))

Not a hit list. About 0.82% of those tested had a hit in this group.
